Compound activity (PubChem)
HCMV NEC inh – inhibitors of HCMV UL50-UL53 interaction, biochemical, HTRF | normalized percent inhibition | inhibition, % (concentration not given with the values) | actives 0.15% (n = 190,000);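 active means both replicates at 50% or more, plus weaker picks with an unusually low signal ratio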;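 further: stock transfer was 100 nL into about 20 µL; 0% = negative control wells and 100% = wells with untagged competitor protein; inactives centre near -12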
Numbers without * were called inactive; & = joins results of further samples. These rows are one share of the data, so the mix of outcomes need not match the whole.

CN(C)C(=O)COC(=O)Cc1ccc(OC(=O)c2ccc(N=C(N)N)cc2)cc1
  HCMV NEC inh: -5.3
CC1(C)OC2C[C@H]3[C@@H]4CCC5=CC(=O)C=C[C@]5(C)[C@]4(F)C(O)C[C@]3(C)[C@@]2(C(=O)CO)O1 (some centres not stated)
  HCMV NEC inh: -5.8
CCCCCCCCCC(=O)N[C@@H](Cc1c[nH]c2ccccc12)C(=O)N[C@@H](CC(N)=O)C(=O)N[C@@H](CC(=O)O)C(=O)N[C@@H]1C(=O)NCC(=O)N[C@@H](CCCN)C(=O)N[C@@H](CC(=O)O)C(=O)N[C@H](C)C(=O)N[C@@H](CC(=O)O)C(=O)NCC(=O)N[C@H](CO)C(=O)NC([C@@H](C)CC(=O)O)C(=O)N[C@@H](CC(=O)c2ccccc2N)C(=O)OC1C (some centres not stated)
  HCMV NEC inh: -53.6
CCSC1=NCCN1S(=O)(=O)c1ccccc1
  HCMV NEC inh: 11.6&-5.4
COc1ccc(C(=O)CNc2cc(C)ccc2C)c(F)c1
  HCMV NEC inh: -5.3
Cc1cc(C)n(-c2ncccc2C(F)(F)F)n1
  HCMV NEC inh: -5.4
O=C(NC12CC3CC(CC(C3)C1)C2)C(F)(F)F
  HCMV NEC inh: 0.5
Cc1cc(C)c2c(-n3cccc3)nn(CC#N)c2n1
  HCMV NEC inh: -4.2
OCC(O)C(O)C(O)C(O)CO (configuration not stated)
  HCMV NEC inh: -9.5&3.1
C/C=C/C/C=C/CCC(=O)[C@H]1O[C@H]1C(N)=O
  HCMV NEC inh: -20.3&-20.3&30.1
Cc1cnc(NCCCn2cccn2)nc1-c1cnn(C)c1
  HCMV NEC inh: 37.4&37.4
CNCC(O)C(O)C(O)C(O)CO (configuration not stated)
  HCMV NEC inh: 1.4&-21.1
Nc1c(Cl)cc(Cl)cc1C(=O)NO
  HCMV NEC inh: -4.5
COC(=O)C[C@H](NC(=O)[C@H](C)NC(=O)[C@@H](NC(=O)OCc1ccccc1)C(C)C)C(=O)CF
  HCMV NEC inh: 13.5
COc1ccccc1NC(=O)CSc1ncnc2ccccc12
  HCMV NEC inh: -5.3
O=c1[nH]c(-c2cccnc2)nc2sc3c(c12)CCCC3
  HCMV NEC inh: -4.7
Cc1cc(C)c(C#N)c(SCC(=O)c2c(C)[nH]c3ccccc23)n1
  HCMV NEC inh: -6.1
OC[C@H](Cc1ccccc1)NC1CCCCCC1
  HCMV NEC inh: -3.7
N=C(N)Sc1cn(Cc2ccccc2)c2ccccc12
  HCMV NEC inh: -9.4
CCOC(=O)CSc1nnc(CSc2nc3ccccc3s2)n1C
  HCMV NEC inh: 0.9
COc1cc2cc3c4cc(OC)c(OC)cc4cc[n+]3c(C)c2cc1OC
  HCMV NEC inh: -66.4
CSc1nc2ccc(NC(=O)c3cc(=O)c4ccccc4o3)cc2s1
  HCMV NEC inh: -23.8
CCCCC(=O)Oc1ccccc1C(=O)O
  HCMV NEC inh: -10.2&-10.2
CC[C@]12CCCN3CCc4c(n(c5ccccc45)C(=O)C1)[C@@H]32
  HCMV NEC inh: -24.8
O=C(O)CCC(=O)Nc1ccc(Cl)cc1
  HCMV NEC inh: -23.7

Sorted by length of the SMILES (rising): some entries from above.
OCC(O)C(O)C(O)C(O)CO (configuration not stated)
  HCMV NEC inh: -9.5&3.1
CNCC(O)C(O)C(O)C(O)CO (configuration not stated)
  HCMV NEC inh: 1.4&-21.1
CCCCC(=O)Oc1ccccc1C(=O)O
  HCMV NEC inh: -10.2&-10.2
O=C(O)CCC(=O)Nc1ccc(Cl)cc1
  HCMV NEC inh: -23.7
OC[C@H](Cc1ccccc1)NC1CCCCCC1
  HCMV NEC inh: -3.7
Cc1cc(C)n(-c2ncccc2C(F)(F)F)n1
  HCMV NEC inh: -5.4
N=C(N)Sc1cn(Cc2ccccc2)c2ccccc12
  HCMV NEC inh: -9.4
COc1ccccc1NC(=O)CSc1ncnc2ccccc12
  HCMV NEC inh: -5.3
Cc1cc(C)c2c(-n3cccc3)nn(CC#N)c2n1
  HCMV NEC inh: -4.2
O=C(NC12CC3CC(CC(C3)C1)C2)C(F)(F)F
  HCMV NEC inh: 0.5
CCOC(=O)CSc1nnc(CSc2nc3ccccc3s2)n1C
  HCMV NEC inh: 0.9
O=c1[nH]c(-c2cccnc2)nc2sc3c(c12)CCCC3
  HCMV NEC inh: -4.7
C/C=C/C/C=C/CCC(=O)[C@H]1O[C@H]1C(N)=O
  HCMV NEC inh: -20.3&-20.3&30.1
CSc1nc2ccc(NC(=O)c3cc(=O)c4ccccc4o3)cc2s1
  HCMV NEC inh: -23.8
COc1cc2cc3c4cc(OC)c(OC)cc4cc[n+]3c(C)c2cc1OC
  HCMV NEC inh: -66.4
Cc1cc(C)c(C#N)c(SCC(=O)c2c(C)[nH]c3ccccc23)n1
  HCMV NEC inh: -6.1
CC[C@]12CCCN3CCc4c(n(c5ccccc45)C(=O)C1)[C@@H]32
  HCMV NEC inh: -24.8
CN(C)C(=O)COC(=O)Cc1ccc(OC(=O)c2ccc(N=C(N)N)cc2)cc1
  HCMV NEC inh: -5.3
COC(=O)C[C@H](NC(=O)[C@H](C)NC(=O)[C@@H](NC(=O)OCc1ccccc1)C(C)C)C(=O)CF
  HCMV NEC inh: 13.5
CC1(C)OC2C[C@H]3[C@@H]4CCC5=CC(=O)C=C[C@]5(C)[C@]4(F)C(O)C[C@]3(C)[C@@]2(C(=O)CO)O1 (some centres not stated)
  HCMV NEC inh: -5.8
CCCCCCCCCC(=O)N[C@@H](Cc1c[nH]c2ccccc12)C(=O)N[C@@H](CC(N)=O)C(=O)N[C@@H](CC(=O)O)C(=O)N[C@@H]1C(=O)NCC(=O)N[C@@H](CCCN)C(=O)N[C@@H](CC(=O)O)C(=O)N[C@H](C)C(=O)N[C@@H](CC(=O)O)C(=O)NCC(=O)N[C@H](CO)C(=O)NC([C@@H](C)CC(=O)O)C(=O)N[C@@H](CC(=O)c2ccccc2N)C(=O)OC1C (some centres not stated)
  HCMV NEC inh: -53.6

(more compounds)
COc1cc(CC(CO)C(CO)Cc2ccc(O)c(OC)c2)ccc1O (configuration not stated)
  HCMV NEC inh: -42.8
CCOC(=O)Cc1csc(NC(=O)c2sc3ccccc3c2Cl)n1
  HCMV NEC inh: -27.4
Clc1ccc(-n2ncc3c(NCc4ccco4)ncnc32)cc1
  HCMV NEC inh: 7.8
CC(C)OP(=O)(c1ccc(N(C)C)cc1)C(Nc1ccccc1)c1ccccc1 (configuration not stated)
  HCMV NEC inh: -1.9
[O-][n+]1cccc(CO)c1
  HCMV NEC inh: -35.6
COc1ccc(Cl)cc1S(=O)(=O)NC1CCCCC1
  HCMV NEC inh: -12.1
CC(C)CCC[C@@H](C)[C@H]1CC[C@H]2[C@@H]3CC(=O)[C@@]4(O)C[C@@H](O)CC[C@]4(C)[C@H]3CC[C@]12C
  HCMV NEC inh: -15.2&-15.2
CC(C)(C)n1nc2c(c1NC(=O)Cc1ccccc1)CS(=O)(=O)C2
  HCMV NEC inh: -4.3
CCOC(=O)c1c2c3c(cccc3[nH]c1=O)C(=O)c1ccccc1-2
  HCMV NEC inh: -53.1
CC1CN(CCC(=O)Nc2ccc(Cl)c(C(F)(F)F)c2)CC(C)O1 (configuration not stated)
  HCMV NEC inh: -1.9
NC(=S)c1ccc(-n2cncn2)nc1
  HCMV NEC inh: -35.8
CCOC(=O)O[C@@]1(C(=O)OCCl)CC[C@H]2[C@@H]3CCC4=CC(=O)C=C[C@]4(C)[C@@H]3C(O)C[C@@]21C (some centres not stated)
  HCMV NEC inh: -15.6
CN(C)CC/C=C1\c2ccccc2CSc2ccccc21
  HCMV NEC inh: 2.5
COc1ccc2cc(CCNC(=O)C3CCCC3)c(=O)[nH]c2c1
  HCMV NEC inh: -21.5
CCCCC[C@H](O)C/C=C1/C(=O)C[C@H](O)[C@@H]1C/C=C\CCCC(=O)O
  HCMV NEC inh: 9.3&9.3
O=C(NCc1ccccc1)c1ccc(NC2=NC3CS(=O)(=O)CC3S2)cc1 (configuration not stated)
  HCMV NEC inh: -4.5
O=C(Cc1ccccc1)Nc1nnc(-c2ccc(Br)cc2)s1
  HCMV NEC inh: 11.2
COC(=O)CC1SC(=O)NC1=Nc1ccc(C)cc1 (configuration not stated)
  HCMV NEC inh: 0.0
O=C(Nc1ccc(S(=O)(=O)N2CCCCC2)cc1)C1CC1
  HCMV NEC inh: 5.2&-0.8
COc1ccc(C(=O)CSc2nnc3n2CCCCC3)cc1
  HCMV NEC inh: -3.4
COC(=O)c1c(NC(=O)COc2ccc(OC)cc2)sc2c1CCCC2
  HCMV NEC inh: -9.4
CC1(C)S[C@H]2C(NC(=O)C(N)c3ccc(O)cc3)C(=O)N2C1C(=O)O (some centres not stated)
  HCMV NEC inh: -9.9
NNc1nc2c3c(ccc2s1)CCCC3
  HCMV NEC inh: -1.0
CCC(=O)NCc1ccc2[nH]c3c(c2c1)CCCC3
  HCMV NEC inh: 4.2
CCN(CC)c1ccc(C2=C(Cl)C(=O)c3ncccc3C2=O)cc1
  HCMV NEC inh: -20.5&-20.5

CCOC(=O)c1nc[nH]c1C(=O)OCC
  HCMV NEC inh: -10.4
COc1ccccc1CNC(=O)Nc1nnc(C)s1
  HCMV NEC inh: 12.2
CC(=O)n1cc(-c2c(O)c3ccccc3oc2=O)c2ccccc21
  HCMV NEC inh: -14.7
COc1cccc(CC(=O)NCc2ccsc2)c1
  HCMV NEC inh: -8.8
Cc1nn(CC(=O)c2ccc(Br)cc2)c(N)[n+]1C
  HCMV NEC inh: -7.5
CCN1CCN(Cc2ccc(NC(=O)c3ccc(C)c(NC(=O)c4ccc5n[nH]nc5c4)c3)cc2C(F)(F)F)CC1
  HCMV NEC inh: -7.8
CCn1c(C(=O)OC)c(NC(C)=O)c2cc(NCc3ccc(OC)cc3)cnc21
  HCMV NEC inh: -12.1
O=C(NCCO)c1ccc(CSc2nc3sc4c(c3c(=O)[nH]2)CCC4)cc1
  HCMV NEC inh: -1.8
Nc1nc2cc(C(=O)N3CCN(C(=O)c4ccco4)CC3)ccc2s1
  HCMV NEC inh: 32.2&32.2
Cc1ccc(CNCC2CCCO2)cc1 (configuration not stated)
  HCMV NEC inh: -15.6
CC1(C)CC(=O)C2=C(C1)OC(=O)CC2c1ccccc1 (configuration not stated)
  HCMV NEC inh: -5.3
COC(=O)c1cc2ccccc2oc1=O
  HCMV NEC inh: -67.4
Cc1cc(C)n(Cc2ccccc2)c(=O)c1C#N
  HCMV NEC inh: -2.1
CCCc1cc2c(=O)c(-c3ccc4c(c3)OCCO4)coc2cc1O
  HCMV NEC inh: -9.0
COC(=O)c1ccccc1Cc1nc(=O)c2ccccc2n1C
  HCMV NEC inh: -2.1
CN(C(=O)c1ccc(-c2nc3ccccc3s2)s1)c1ccccc1
  HCMV NEC inh: -9.0
CCCn1c(CCCNC(C)=O)nc2ccccc21
  HCMV NEC inh: -0.3
COc1ccc(-c2nnc(NC(=O)c3cc(C)cc(C)c3)s2)c(OC)c1
  HCMV NEC inh: -0.1
COC(=O)c1c(NC(=O)C2CC2)sc2c1CCCC2
  HCMV NEC inh: 4.2&-8.0
O=C(Nc1nnc(-c2ccccc2)o1)c1cc(Cl)sc1Cl
  HCMV NEC inh: -2.7
Fc1ccc(Cl)cc1-c1nc(Nc2ccncc2)c2nccnc2n1
  HCMV NEC inh: -69.4
N#Cc1cc2c(nc1SCc1ccc(Cl)cc1)CCCC2=O
  HCMV NEC inh: -7.8
O=C(O)C1CCC(=O)N(C2CCCCC2)C1c1ccccc1 (configuration not stated)
  HCMV NEC inh: -6.0
c1ccc(CN2CCC(Nc3ncnc4sccc34)CC2)nc1
  HCMV NEC inh: 43.2&43.2
CN(C)CC(C)(C)CNc1nn2c(-c3ccccc3)nnc2cc1C1CCC1
  HCMV NEC inh: 5.5&9.5&11.6
N#CC1=C(SCc2ccccc2)NC(=O)C(C#N)C1c1ccccc1Cl (configuration not stated)
  HCMV NEC inh: -32.8
CC(=O)Nc1nc2c(s1)CC(C)CC2 (configuration not stated)
  HCMV NEC inh: 6.2
